RecA splice inh – blocks M. tuberculosis RecA intein splicing; actives 0.75% (n = 290,000); P9WHJ3; cell-free RecA intein splicing, fluorescence; inhibition, %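 (about 9 µM by stock and volumes)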; in the data active means inhibition above about 30%; inconclusive means no clear call, values can overlap the other calls;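 further: 0% = vehicle wells and 100% = reference inhibitor control wells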
Target sequence (P9WHJ3 whole entry, looked up, canonical isoform): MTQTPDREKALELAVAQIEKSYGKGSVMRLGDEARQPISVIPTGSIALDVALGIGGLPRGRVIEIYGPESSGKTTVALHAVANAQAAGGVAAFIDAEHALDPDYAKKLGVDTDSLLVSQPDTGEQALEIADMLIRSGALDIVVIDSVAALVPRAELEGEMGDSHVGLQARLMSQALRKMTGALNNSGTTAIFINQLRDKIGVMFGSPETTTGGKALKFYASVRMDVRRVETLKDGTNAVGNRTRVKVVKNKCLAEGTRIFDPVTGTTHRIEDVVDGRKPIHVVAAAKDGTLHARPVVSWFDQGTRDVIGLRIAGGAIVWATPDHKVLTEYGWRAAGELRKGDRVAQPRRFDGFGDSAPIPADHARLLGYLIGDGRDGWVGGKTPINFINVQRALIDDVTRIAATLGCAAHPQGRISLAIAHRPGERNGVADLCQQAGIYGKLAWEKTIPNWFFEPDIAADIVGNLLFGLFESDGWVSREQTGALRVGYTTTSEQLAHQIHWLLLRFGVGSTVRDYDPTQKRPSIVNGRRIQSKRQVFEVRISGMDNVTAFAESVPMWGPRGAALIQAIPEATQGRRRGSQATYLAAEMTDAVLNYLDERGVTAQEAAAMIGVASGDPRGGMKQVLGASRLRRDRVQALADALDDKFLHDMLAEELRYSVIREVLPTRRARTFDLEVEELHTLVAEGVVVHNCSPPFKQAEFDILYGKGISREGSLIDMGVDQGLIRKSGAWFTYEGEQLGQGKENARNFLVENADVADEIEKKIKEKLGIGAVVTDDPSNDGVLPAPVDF
Mtb betalactam – beta-lactam sensitization of Mtb H37Rv | M. tuberculosis H37Rv growth with meropenem, percent inhibition; hits of this screen are not shown here | inhibition, % at 25 µM | actives 0.27% (n = 330,000);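 active means about 74% or more and at least 40 points above the plate without the antibiotic, then above 30% in a dose series; inconclusive means first-round hits that could not be retested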;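 further: growth measured after seven days incubation then overnight dye step; 0% = bacteria only wells and 100% = bacteria with antibiotic; twin plates without the antibiotic show which effects depend on it; some results filed as inactive read as strong as hits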
Mtb growth – M. tuberculosis H37Rv growth inhibitors, H37Rv strain (AID 1626); M. tuberculosis H37Rv growth inhibition; higher % means a stronger effect; one-dose inhibition, % at 10 µM; IC50 in µM for titrated hits; actives 0.95% (n = 220,000);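 active means confirmed in a dose series; inconclusive means inhibition above 80% but not taken into the dose series; inactive means below 80% or under 30% at every dose of the series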;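 further: bacteria incubated seven days before Alamar blue readout; 0% = bacteria only wells and 100% = bacteria with antibiotic wells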
YopH inh – inhibitors of Yersinia enterocolitica YopH tyrosine phosphatase. inhibition, %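 (about 10 µM by stock and volumes)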. fluorescence Ex485/Em525. AID 898. actives 0.16% (n = 140,000);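 active means inhibition of 50% or more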;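 further: controls were vehicle for no effect and minimum signal wells for full effect; inactives centre near -20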
Arbovirus inh – antivirals against arbovirus infection. arbovirus infection cell-based antiviral screen. inhibition, % at 10 µM. actives 0.37% (n = 200,000). AID 1251;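 active means inhibition from about 30%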;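 further: bluetongue infection of BSR cells; cell survival read as ATP light after 72 h; 0% = infected wells without compound and 100% = uninfected wells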
Arbovirus inh repeat – recorded beside Arbovirus inh, whose call it bears; inhibition, %; measured here: 10K subset replicate screen; many hits read low in the repeat;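 first of two repeat runs on a subset; 0% = infected and 100% = uninfected wells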
The depositor's hits bear a star; ? = inconclusive; . = no result given; & = joins results of further samples.

SMILES	RecA splice inh	Mtb betalactam	Mtb growth	YopH inh	Arbovirus inh	others
Cc1noc(/C=C/N(C)C)c1S(=O)(=O)N1CCCC(C(=O)NCc2ccccc2Cl)C1 (stereo not drawn)	.	-8	.	-8	-15
Cc1ccc(C)c(OCCC(=O)OCC(=O)Nc2ccc(N3CCOCC3)cc2)c1	2.4	-7	.	.	.
O=C(CSC(=S)N1CCCCC1)Nc1nc(-c2ccccc2)c(-c2ccccc2)o1	0.7	4	-3%	-34	-8
CC(CC(=O)NC1CCCCC1)S(=O)(=O)c1ccc2c(c1)NC(=O)CO2 (stereo not drawn)	-2.5	0	.	.	.
NC1=NC(=O)/C(=C/c2ccsc2)S1	2.6	-5	1%	.	2
Cc1cc(N2CCCc3ccccc32)n2ncnc2n1	1.2	1	7%	-5	7	Arbovirus inh repeat=0
O=C1CCc2ccccc2N1Cc1ccccc1	-0.7	0	.	.	.
COC(=O)c1ccc(C2C(C(=O)Nc3ccccc3C)=C(C)Nc3ncnn32)cc1 (stereo not drawn)	-2.7	-3	10%	-42	-1
Cc1ccc(C)c(S(=O)(=O)c2c(C)cc(C)[nH]c2=O)c1	0.8	-9	.	.	.
O=C(CC(=O)c1ccccc1O)c1cccc(F)c1	3.5	98	18µM*	-22	-17
CC1(C)CC(=O)C=C(Nc2ccc(Cl)c(Br)c2)C1	2.0	1	.	.	.
CCCCC1=CC2=CC(=O)C(C)(OC(=O)c3cnc4ccccc4n3)C(=O)C2=CO1 (stereo not drawn)	34*	-3	-10%	.	.
O=C(CC1CCC1)Nc1cccc2c([N+](=O)[O-])cccc12	6.9	-8	.	.	.
C=CCOc1ccc(/C=C2/C(=O)ON=C2C)cc1OCC	0.5	-1	.	.	.
CCOC(=O)C(=O)Nc1nnc(Cc2ccc(OC)c(OC)c2)s1	-1.0	-3	-7%	-20	10
Cc1c(NC(=O)COC(=O)c2ccc(S(=O)(=O)N3CCOCC3)cc2)c(=O)n(-c2ccccc2)n1C	2.1	-10	0%	.	6
Cc1cc(/C(N)=N/OC(=O)c2ccc(Cl)cc2)no1	1.5	-2	3%	.	.
COc1cc(C(=O)N(C)CC(=O)Nc2cccc(F)c2)ccc1OCc1ccccc1	0.0	-1	.	.	.
COc1ccccc1NS(=O)(=O)c1ccc2oc(SC3CCOC3=O)nc2c1 (stereo not drawn)	-2.6	-2	-17%	-48	5
COc1ccccc1OCC(=O)NCC1CCCN(C(=O)c2ccccc2C(C)=O)C1 (stereo not drawn)	1.1	?	.	.	.
COc1ccc(NC(=O)CC(C)C)c(OC)c1	2.9	1	-2%	-10	3
COc1ccc(/C=C/CN2CCN(CCc3ccccc3)C(CCO)C2)cc1 (stereo not drawn)	1.0	72	31%	.	10
N#Cc1cc(-c2ccccc2)nnc1Sc1ccc(F)cc1	4.2	-5	0%	-20	-2
CC(C)c1ccc(NC(=O)Nc2cnccn2)cc1	-2.0	-10	.	.	.
NC(=O)[C@@H]1CCNc2c(I)cc([N+](=O)[O-])cc2C(=O)N[C@@H](CO)C(=O)N[C@@H](Cc2ccc(O)cc2)C(=O)N1	.	.	1%	-3	10

Following part:
SMILES	RecA splice inh	Mtb betalactam	Mtb growth	YopH inh	Arbovirus inh	others
O=C(CSc1nnc(-c2cccnc2)n1C1CCCCC1)NC1CCCC1	-1.7	-1	-6%	23	8
COCCn1nnnc1C(c1cc2cc(C)ccc2[nH]c1=O)N1CCN(C2CCCCC2)CC1 (stereo not drawn)	2.0	-6	0%	3	3
O=C(COC(=O)Cc1ccccc1)Nc1cc(S(=O)(=O)N2CCOCC2)ccc1N1CCCC1	0.4	0	-4%	-21	-1
CCOc1ccc2nc(NC(=O)CCC(=O)c3cccs3)sc2c1	.	-3	7%	5	-7
Cc1cccc(CSc2nnc(Cn3c(=O)sc4ccccc43)n2C)c1	1.9	0	4%	-36	-13	Arbovirus inh repeat=-10
CCn1cc(C(=O)N2CCc3ccccc32)c(=O)c2cc(S(=O)(=O)N3CCOCC3)ccc21	0.0	-5	.	-13	1
Cc1cccc(N2CCN(C(=O)COc3cccc4c3OC(C)(C)C4)CC2)c1C	11	8	11%	-47	-8
CCOC(=O)c1ccc(-c2ccc(CO)o2)cc1	5.6	-5	-4%	1	-5
Cc1cc(NC(=O)CSCCO)no1	0.1	-3	-9%	-2	-1
S=C(NCCN1CCOCC1)Nc1ccc(Br)cc1	2.1	-2	-4%	-9	5
COC(=O)Cn1c(=O)c2c(nc3n2CCCN3CCc2ccc(OC)c(OC)c2)n(C)c1=O	0.6	-4	.	.	.
Cc1ccc(-c2c(C(=O)N/N=C/c3ccc(OC(C)C)cc3)nnn2-c2nonc2N)cc1	-1.3	1	.	.	.
CCC(=O)N/C(N)=N/c1nc(C)c2cc(C)c(C)cc2n1	0.3	5	8%	.	.
O=C(Nc1nnc(SCc2ccc(F)cc2)s1)c1ccccn1	5.7	.	0.34µM*	.	-24
O=C(NC1CCCC1)C1CCN(C(=O)c2ccc(Cl)cc2)CC1	-0.8	-2	.	.	.
CC(=O)c1sc(NC(=O)c2c(F)cccc2F)nc1-c1ccccc1	3.2	-8	5%	.	16
CCn1c2ccc(CC(=O)O)cc2c2cc(CC(=O)O)ccc21	-0.8	-4	-4%	-25	1
CNC(=O)COC(=O)c1cccnc1SC	-2.7	-7	-3%	-1	1
N#Cc1cc(F)c(N2CCNCC2)cc1Cl	2.0	-9	-2%	6	6
Cc1ccc(S(=O)(=O)n2nc(-c3ccco3)nc2SCc2ccccc2)cc1	5.6	-8	.	-81	2
COc1cccc(CC(CC(=O)O)C(=O)Nc2cc(C)ccc2C)c1 (stereo not drawn)	-2.3	-6	.	.	.
O=C(CN1CCCCC1)Nc1ccc(S(=O)(=O)NC2CCCCC2)cc1	-0.3	-2	-1%	-3	-8
O=C(c1ccccc1)n1nc(-c2ccccc2)nc1NCc1ccco1	5.0	-2	.	-26	0	Arbovirus inh repeat=-3
CCCCc1cc(=O)oc2c(C)c(OCC(=O)N3C[C@H]4C[C@@H](C3)c3cccc(=O)n3C4)ccc12	2.9	-5	.	.	.
CC(=O)C1=C(c2ccc(Br)cc2)C(=O)c2ccccc2C1=O	58*	98	-1%	4	-41

19 entries already listed, arranged by molecular weight, highest first:
SMILES	RecA splice inh	Mtb betalactam	Mtb growth	YopH inh	Arbovirus inh	others
O=C(COC(=O)Cc1ccccc1)Nc1cc(S(=O)(=O)N2CCOCC2)ccc1N1CCCC1	0.4	0	-4%	-21	-1
CCn1cc(C(=O)N2CCc3ccccc32)c(=O)c2cc(S(=O)(=O)N3CCOCC3)ccc21	0.0	-5	.	-13	1
COCCn1nnnc1C(c1cc2cc(C)ccc2[nH]c1=O)N1CCN(C2CCCCC2)CC1 (stereo not drawn)	2.0	-6	0%	3	3
COC(=O)Cn1c(=O)c2c(nc3n2CCCN3CCc2ccc(OC)c(OC)c2)n(C)c1=O	0.6	-4	.	.	.
Cc1ccc(-c2c(C(=O)N/N=C/c3ccc(OC(C)C)cc3)nnn2-c2nonc2N)cc1	-1.3	1	.	.	.
Cc1ccc(S(=O)(=O)n2nc(-c3ccco3)nc2SCc2ccccc2)cc1	5.6	-8	.	-81	2
Cc1cccc(N2CCN(C(=O)COc3cccc4c3OC(C)(C)C4)CC2)c1C	11	8	11%	-47	-8
O=C(CSc1nnc(-c2cccnc2)n1C1CCCCC1)NC1CCCC1	-1.7	-1	-6%	23	8
O=C(CN1CCCCC1)Nc1ccc(S(=O)(=O)NC2CCCCC2)cc1	-0.3	-2	-1%	-3	-8
CCOc1ccc2nc(NC(=O)CCC(=O)c3cccs3)sc2c1	.	-3	7%	5	-7
CC(=O)c1sc(NC(=O)c2c(F)cccc2F)nc1-c1ccccc1	3.2	-8	5%	.	16
CC(=O)C1=C(c2ccc(Br)cc2)C(=O)c2ccccc2C1=O	58*	98	-1%	4	-41
O=C(Nc1nnc(SCc2ccc(F)cc2)s1)c1ccccn1	5.7	.	0.34µM*	.	-24
O=C(c1ccccc1)n1nc(-c2ccccc2)nc1NCc1ccco1	5.0	-2	.	-26	0	Arbovirus inh repeat=-3
COc1cccc(CC(CC(=O)O)C(=O)Nc2cc(C)ccc2C)c1 (stereo not drawn)	-2.3	-6	.	.	.
CCn1c2ccc(CC(=O)O)cc2c2cc(CC(=O)O)ccc21	-0.8	-4	-4%	-25	1
CCC(=O)N/C(N)=N/c1nc(C)c2cc(C)c(C)cc2n1	0.3	5	8%	.	.
CCOC(=O)c1ccc(-c2ccc(CO)o2)cc1	5.6	-5	-4%	1	-5
CNC(=O)COC(=O)c1cccnc1SC	-2.7	-7	-3%	-1	1

Sorted by heavy-atom count (highest first): three of the compounds above
SMILES	RecA splice inh	Mtb betalactam	Mtb growth	YopH inh	Arbovirus inh	others
O=C(COC(=O)Cc1ccccc1)Nc1cc(S(=O)(=O)N2CCOCC2)ccc1N1CCCC1	0.4	0	-4%	-21	-1
Cc1ccc(S(=O)(=O)n2nc(-c3ccco3)nc2SCc2ccccc2)cc1	5.6	-8	.	-81	2
O=C(c1ccccc1)n1nc(-c2ccccc2)nc1NCc1ccco1	5.0	-2	.	-26	0	Arbovirus inh repeat=-3

Further results:
SMILES	RecA splice inh	Mtb betalactam	Mtb growth	YopH inh	Arbovirus inh	others
Cc1nn(CCO)c2ncc(C(=O)c3cc(F)ccc3O)cc12	2.1	-8	.	.	.
CN(C)C(=O)c1ccc(NC(=O)COc2ccc([N+](=O)[O-])cc2)cc1	0.4	-7	4%	.	4
CCCCNC(=O)c1sc2ncnc(N3CCc4ccccc4C3)c2c1C	8.0	86	13%	-90	6
Cc1c(C(=O)N2CCCCC2CCN2CCCC2=O)oc2c(F)cccc12 (stereo not drawn)	0.6	-4	.	.	.
COC(=O)c1ccc(-n2ccnc2)cc1	2.5	6	.	.	7
Cc1ccccc1-c1ccc(C=Nc2c(C)n(C)n(-c3ccccc3)c2=O)o1	0.3	-5	-13%	-62	-4
Cc1csc(C(C#N)C(=O)c2ccncc2)n1 (stereo not drawn)	-1.9	-2	.	-19	3
CC(=O)Nc1ccc(S(=O)(=O)Nc2nccc(C3Cc4ccccc4C(=O)O3)n2)cc1 (stereo not drawn)	0.8	8	-2%	-38	12
COc1ccc(C2CC(c3cccs3)=Nc3ccccc3S2)cc1OC (stereo not drawn)	-3.5	24	6%	-21	8
C[C@H]1[C@H](OC(=O)CCC(=O)NCc2ccc(C(=O)O)cc2)O[C@@H]2O[C@@]3(C)CC[C@H]4[C@H](C)CC[C@@H]1C24OO3	0.9	4	.	.	.
CC(=O)SCC(Cc1ccccc1)C(=O)NCC(=O)OCc1ccccc1 (stereo not drawn)	1.9	34	-8%&2%	.	-6
O=[N+]([O-])c1cc(/C=N/N2CCN(Cc3ccccc3)CC2)ccc1Cl	7.4	26	18%	.	9
COc1ccc(Cc2n[nH]c(=S)n2NC(=O)Nc2ccc(C)cc2)cc1	-4.0	20	-2%	.	0
O=C(OCc1cc2ccccc2[nH]c1=O)c1ccco1	-2.0	6	5%	0	4
CSc1nc(N)nc(SC2C=CCCC2)c1C#N (stereo not drawn)	-0.4	8	-2%	7	9
Cc1ccc2nc(-c3ccccn3)cc(C(=O)NC(C)C(C)(C)C)c2c1 (stereo not drawn)	-0.1	31	6%	.	-4
O/N=C1/CCCCC1c1ccccn1 (stereo not drawn)	-1.5	1	1%	-40	9
COc1cc(C(=O)NC2CCCC2)c(Br)c(OC)c1OC	-1.0	2	3%	.	5
O=C(NCc1ccccc1)c1ccc2c(c1)C(=O)N(Cc1ccncc1)C2=O	-1.1	-3	0%	-122	15
CCn1cc(CN2CCN(Cc3ccccc3)C(CCO)C2)c2ccccc21 (stereo not drawn)	-3.0	-5	.	.	.
C#CCN(C)[C@H](C)Cc1ccccc1	0.7	74	-5%&-1%	.	0
Cc1cc(Cl)ccc1NC(=S)NCCN1CCOCC1	-0.7	-3	2%	-12	4
O=C(CCCn1c(=S)[nH]c2ccc(Br)cc2c1=O)NCc1ccccn1	-2.0	0	.	.	.
CC(C)[C@H](NC(=O)c1ccccc1)C(=O)OCC(=O)Nc1ccc(Cl)cc1C(F)(F)F	-5.8	4	-5%	-36	-3
COC(=O)c1cc(NC(=O)Cc2ccccc2[N+](=O)[O-])ccc1Cl	2.2	50	1%	-11	-1
CC(C)Cc1cc(C(=O)NCc2ccco2)no1	-1.1	1	11%	.	0
O=C(CSc1ncn[nH]1)N1CCN(S(=O)(=O)c2ccccc2)CC1	3.3	3	-9%	2	5
CCN(CC)P(=O)(Nc1ccc([N+](=O)[O-])cc1)c1c(C)nn(CCC#N)c1NC(=O)c1ccc(Cl)cc1 (stereo not drawn)	-3.2	3	.	.	.
O=c1c2ccccc2ncn1-c1ccc2c(c1)OCCO2	1.7	-4	-1%	8	5	Arbovirus inh repeat=1
CCOC(=O)C1=C(COC(=O)COc2ccc(C#N)cc2)NC(=O)NC1C (stereo not drawn)	-1.2	-13	.	.	.

Compound activity: PubChem BioAssay, several laboratories

An excerpt; rates above refer to the full screens.
